High-throughput results: PubChem, several laboratories
FGF22 binding – binders of recombinant human FGF22 by thermal shift; 1.5% of 340,000 active; SYPRO orange fluorescence; percent of sucrose octasulfate shift, DMSO zero; calls only at 9.99 µM; Q9HCT0;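 active = melting point raised past a set limit in the mean and every replicate; three in four hits are not shown here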
Target sequence (Q9HCT0 whole entry, looked up): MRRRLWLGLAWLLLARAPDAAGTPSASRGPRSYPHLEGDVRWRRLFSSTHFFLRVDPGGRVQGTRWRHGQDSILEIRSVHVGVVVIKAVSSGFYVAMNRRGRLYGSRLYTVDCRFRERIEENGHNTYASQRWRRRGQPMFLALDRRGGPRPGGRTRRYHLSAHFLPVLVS
UCH37 inh – inhibitors of human deubiquitinating enzyme UCH37; Q9Y5K5; purified proteasome/UCH37, Ub-AMC cleavage fluorescence; AID 588478; 0.33% of 330,000 active; inhibition, % (concentration not given with the values);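 active = mean of two replicates above 20%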;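 note: 0% = compound-free wells with enzyme and 100% = wells lacking proteasome; stock transfer was 100 nL into about 20 µL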
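Test system – human UCH37 enzyme supplied as purified proteasome complex · Incubation – 30 min preincubation with enzyme, 25 min cleavage at room temperature · Detection – AMC fluorescence from Ub-AMC cleavage, excitation 355 nm, emission 460 nm · Benchmarks – no-proteasome wells (full inhibition) and compound-free wells (no inhibition)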
ALR inh – blocks human ALR sulfhydryl oxidase activity; P55789; purified ALR, DTT oxidation, H2O2 HRP-luminol luminescence; inhibition, % (concentration not given with the values); 3.8% of 290,000 active;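 active = mean and each replicate at 75% or more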;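 note: stock transfer was 7.5 nL into about 7.5 µL; 0% = neutral wells and 100% = wells with inactivated enzyme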
Ecoli growth – inhibitors of Escherichia coli growth | OD600, 23 h; stronger effect = lower value | OD600 absorbance (concentration not given with the values) | 0.21% of 330,000 active | AID 1053175;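 active = OD600 absorbance below the run mean of sample wells minus 3.6 SD, in any replicate, cut at about 0.56 in these data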;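 note: stock transfer was 300 nL into about 60 µL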
HNF4A DNA FP – change in binding of human HNF4 alpha to DNA; P41235; HNF4a-FITC DNA binding, fluorescence polarization, 1 h; activity change, % at 10 µM; 0.3% of 360,000 active; in the data active = activity change above about 30%, passing the limit was not always enough;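 note: controls were the assay level and a saturating level of protein; the project sought stronger binding though the title names inhibitors; some compounds called inactive have numbers as strong as hits; positive values seem to mean higher polarization but the record does not say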
Target sequence (P41235 whole entry, looked up): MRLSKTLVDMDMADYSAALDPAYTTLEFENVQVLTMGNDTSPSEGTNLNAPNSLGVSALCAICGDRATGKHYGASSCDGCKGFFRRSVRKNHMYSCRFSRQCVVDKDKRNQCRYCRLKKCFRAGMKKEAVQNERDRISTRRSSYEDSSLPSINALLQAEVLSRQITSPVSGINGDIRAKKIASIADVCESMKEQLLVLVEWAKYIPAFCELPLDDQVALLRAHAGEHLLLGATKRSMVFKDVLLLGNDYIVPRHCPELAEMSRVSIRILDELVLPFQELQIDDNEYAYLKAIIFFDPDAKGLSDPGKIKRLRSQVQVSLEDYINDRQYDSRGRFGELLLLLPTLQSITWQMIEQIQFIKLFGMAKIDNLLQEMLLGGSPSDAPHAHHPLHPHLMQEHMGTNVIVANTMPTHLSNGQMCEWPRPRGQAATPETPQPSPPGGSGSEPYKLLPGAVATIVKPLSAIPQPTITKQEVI
Beta2AR agonist – agonists of human beta-2 adrenergic receptor inducing internalization; P07550; 0.43% of 340,000 active; AID 504454; Am2.2-beta2AR cells, FAP receptor internalization, flow cytometry; reference of the scale not given here; response, % (test concentration not listed);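 active = response above a set limit, near 3 SD of response in nonfluorescent compounds, cut at about 42% in these data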;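 note: stock transfer was 100 nL into about 11 µL; a reference agonist was the positive control; negative values mostly stem from fluorescent compounds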
Target sequence (P07550 whole entry, looked up): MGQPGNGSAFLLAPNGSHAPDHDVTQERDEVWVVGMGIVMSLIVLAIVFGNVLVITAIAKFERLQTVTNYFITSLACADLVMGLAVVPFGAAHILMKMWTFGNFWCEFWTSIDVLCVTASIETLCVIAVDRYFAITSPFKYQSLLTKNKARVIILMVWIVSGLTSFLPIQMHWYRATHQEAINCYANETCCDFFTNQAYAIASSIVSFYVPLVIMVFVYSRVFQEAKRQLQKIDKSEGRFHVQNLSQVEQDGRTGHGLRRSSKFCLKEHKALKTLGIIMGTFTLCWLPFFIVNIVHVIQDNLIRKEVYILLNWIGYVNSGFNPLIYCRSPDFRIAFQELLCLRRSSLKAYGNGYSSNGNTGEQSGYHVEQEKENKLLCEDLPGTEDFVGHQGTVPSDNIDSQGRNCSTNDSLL
LANA-H2A inh – blocks KSHV LANA binding to histone H2A/H2B. Q9QR71. 0.6% of 320,000 active. inhibition, % (test concentration not listed). cell-free LANA-H2A/H2B peptide, fluorescence polarization; in the data active = inhibition mostly above about 10%, no sharp cut-off; inactive = mostly below about 6.7%;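 note: stock transfer was 7.5 nL into about 10 µL; 0% = median of vehicle wells and 100% = median of positive control wells; one replicate is shown; the record names a cut of 25% in any replicate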
* = called active by the depositor; i = inactive; nt = no result given.

The first two records as a preview:
Fields: ALR inh	LANA-H2A inh	FGF22 binding	UCH37 inh	Beta2AR agonist	HNF4A DNA FP	Ecoli growth
> CCC1(CC)Cc2ccccc2C(N)=C1C#N
 : 0	0.0	nt	-4.6	0	-1.1	0.74
> COc1ccc(-c2c3c(=O)n(C)c(=O)n(C)c3cn2-c2ccccc2O)cc1
 : nt	2.9	i	-25	-7	2.3	0.71

The whole of this part, from the first entry:
Fields: ALR inh	LANA-H2A inh	FGF22 binding	UCH37 inh	Beta2AR agonist	HNF4A DNA FP	Ecoli growth
> CCC1(CC)Cc2ccccc2C(N)=C1C#N
 : 0	0.0	nt	-4.6	0	-1.1	0.74
> COc1ccc(-c2c3c(=O)n(C)c(=O)n(C)c3cn2-c2ccccc2O)cc1
 : nt	2.9	i	-25	-7	2.3	0.71
> Nc1cccnc1Oc1ccccc1F
 : -19	1.7	i	1.9	8	0.7	0.64
> CC(C)C(NC(=O)c1ccc(F)cc1)C(=O)OCC(=O)N1CC(=O)Nc2ccccc21 (stereo unspecified)
 : -3	1.5	nt	2.6	-4	-1.4	0.68
> Cc1c(-c2ccc(F)cc2)nc(N)c(C#N)c1-c1cccnc1
 : -7	0.0	i	-37	0	-1.4	0.66
> C[C@H](c1ccccc1)n1nnc(COCc2ccccc2)c1C#CCOCc1ccccc1
 : 7	-1.1	i	1.4	6	2.2	nt
> CCOC(=O)c1c(C)[nH]c(O)c1C=Nc1ccccc1
 : -7	-1.5	nt	5.3	-2	9.4	0.71
> O=C(CC(c1ccccc1)c1cc(Cl)ccc1O)NCCCN1CCOCC1 (stereo unspecified)
 : 5	-6.0	i	4.1	2	0.7	0.62
> COc1ccc(CN2CNc3c(c(=O)n(C)c(=O)n3C)C2)cc1
 : -4	0.8	i	-1.1	0	-2.3	0.68
> C=C[C@@]1(C)CC(=O)[C@]2(O)[C@@]3(C)[C@@H](O)CCC(C)(C)[C@@H]3[C@H](OC(C)=O)[C@H](O)[C@@]2(C)O1
 : -38	-7.7	i	0.6	-3	0.5	0.63
> CCOC(=O)N1CCN(C(=O)c2cc3c(=O)[nH]c4ccccc4c3s2)CC1
 : -3	-0.3	nt	-51	-10	-0.8	0.75
> CCn1c([N+](=O)[O-])nc2c1c(=O)[nH]c(=O)n2C
 : nt	nt	i	7.6	14	-0.3	0.71
> CCN1CCN(C2=C(Cl)C(=O)N(Cc3ccccc3)C2=O)CC1
 : -2	-1.2	nt	1.0	5	0.0	0.69
> Cc1nn(C)c(Cl)c1/C=C/C(=O)O
 : 1	7.7	i	1.3	2	-1.8	0.66
> O=C(CNc1ccccc1Cl)c1ccc(Br)cc1
 : 1	1.2	i	-1.3	2	1.4	0.68
> CCOC(=O)Cc1cc(=O)n2[nH]c(-c3ccc(C)cc3)cc2n1
 : 4	0.0	nt	-7.0	-1	7.5	0.71
> CCCc1ccc(C(=O)NC(=O)c2ccccc2O)cc1
 : 7	0.7	i	0.9	2	-0.3	0.63
> O=C(COC(=O)c1ccc2c(c1)OCO2)NCc1ccc2c(c1)OCO2
 : -14	-0.1	nt	0.6	-2	-0.7	0.69
> COc1ccc(C(=O)N[C@H](C(=O)NCc2ccccc2)C(C)C)cc1
 : -3	-0.3	i	4.7	-4	0.2	0.65
> CC(C)(C)NC(=O)C[C@H]1C[C@H](C(=O)N2CCOCC2)[C@@]2(C)c3[nH]c4ccc(Cl)cc4c3CCN2C1=O
 : nt	nt	i	3.9	2	1.7	0.71
> OC(C#CCCN1CCCCC1)(c1ccccc1)c1ccccc1
 : -12	-2.7	i	-0.4	6	-4.7	0.69
> O=C1CN(S(=O)(=O)c2cc(Cl)ccc2Cl)c2ccccc2N1
 : nt	-2.1	i	5.5	-1	3.4	0.64
> C=C(C)c1sc(-c2ccccc2)nc1C
 : -2	5.3	i	-0.7	nt	nt	0.69
> COC(=O)C1=C(C)NC(C)=C(C(=O)OC)C1c1ccc(C)o1
 : 2	0.3	i	-7.2	-4	3.7	0.69
> CCc1ccc2oc(C(=O)NCC(c3ccc(OC)cc3)N3CCCCC3)c(C)c2c1 (stereo unspecified)
 : -12	0.6	i	6.1	-3	1.7	0.68
> NN=C(c1cccc([N+](=O)[O-])c1)c1cccc([N+](=O)[O-])c1
 : -8	2.9	i	5.1	-7	0.1	0.65
> Cc1coc2cc3oc(=O)ccc3cc12
 : -1	0.8	i	-2.1	-14	3.0	0.68
> Cc1ccc(S(=O)(=O)Nc2ccc(O)c(S(=O)(=O)c3ccc(C)cc3)c2)cc1
 : 33	-1.3	i	1.8	-5	-2.4	0.74
> COc1ccc(OC)c(C2=NOC(C(=O)NCc3cccs3)C2)c1 (stereo unspecified)
 : -3	-0.2	i	-2.9	-9	6.1	0.68
> Cc1ccc(N(CC(=O)NCc2ccco2)C(=O)CNS(=O)(=O)c2ccc(F)cc2)c(C)c1
 : 3	-1.9	i	4.1	7	1.8	0.66
> CCC(C)NC(=O)Nc1ccc(Br)cc1Cl (stereo unspecified)
 : nt	0.4	i	1.9	-3	0.2	0.68
> CCn1c(SCC(=O)c2ccc(Br)cc2)nnc1C(C)NC(=O)Cc1ccc(OC)cc1 (stereo unspecified)
 : nt	nt	nt	1.5	-1	1.5	0.78
> COc1ccc(NS(=O)(=O)c2ccc(SC)cc2)c(OC)c1
 : -1	-7.0	nt	1.0	-5	3.5	0.67
> Cc1coc2cc3oc(=O)c(CCC(=O)N4C[C@H]5C[C@@H](C4)c4cccc(=O)n4C5)c(C)c3cc12
 : 38	-4.1	i	-38	-10	1.5	0.71
> COc1ccc(C)cc1NC(=O)Nn1cnnc1
 : -28	-1.9	nt	1.5	3	-1.4	0.64
> CS(=O)(=O)N(CC(=O)NC1CCCC1)Cc1ccc(F)cc1
 : -1	1.1	i	3.3	-14	-5.0	0.7
> O=C1CC[C@@H]2CC(N3CCN(c4ccccc4)CC3)C[C@@H]3CCN1[C@H]23 (stereo partly specified)
 : nt	nt	i	nt	8	0.2	nt
> O=C(N/N=C\c1cn[nH]c1-c1ccccc1)c1cccs1
 : 2	2.2	i	nt	-10	1.9	nt
> C[C@H]1CN([C@@H](C)CO)C(=O)Cc2cc(NC(=O)CCC(F)(F)F)ccc2O[C@H]1CN(C)Cc1ccc(C(F)(F)F)cc1
 : -1	0.3	i	-2.3	2	2.8	0.7
> CC(NS(=O)(=O)c1ccc2c(c1)C(C)(C)C(=O)N2C)c1ccccc1 (stereo unspecified)
 : -1	12	i	5.0	3	-1.0	0.73
> Cc1ccc2c(c1)c(C)c(C)n2CC(O)Cn1nc(C)c(Br)c1C (stereo unspecified)
 : nt	0.6	nt	7.1	6	1.6	0.68
> COCC1=C(C(=O)OC(C)OC(=O)OC(C)C)N2C(=O)[C@@H](NC(=O)/C(=N\OC)c3csc(N)n3)[C@H]2SC1 (stereo partly specified)
 : -14	6.1	i	nt	6	-0.3	nt
> CCOc1ccccc1CNC(=O)CCCn1ccc2cc(S(=O)(=O)N3CCCC3)ccc21
 : -10	3.8	i	2.8	-5	1.9	0.72
> Cc1oc(-c2nc3ccccc3n2C)cc1C(=O)c1ccccc1
 : -5	-11	nt	2.9	34	-1.3	0.74
> CCOC(=O)C(=O)c1c(-c2ccc(C)cc2)nc2ccccn12
 : -1	0.7	i	4.4	-94	1.8	0.7
> C=CCC1c2cccc(C(=O)O)c2C(=O)N1c1ccc(Cl)cc1 (stereo unspecified)
 : nt	1.7	nt	-2.9	1	0.5	0.68
> Cc1onc(-c2ccccc2)c1C(=O)OCC(=O)NC(=O)c1ccccc1
 : -2	2.5	i	1.9	-2	2.9	0.69
> CCOCc1nnc(NC(=O)CS(=O)(=O)c2ccc(C)cc2)s1
 : 6	-0.4	i	0.5	-3	-3.1	0.64
> COC(=O)c1sc2nc(C)nc(SCC(=O)C(C)(C)C)c2c1C
 : 0	-0.6	i	-2.4	0	2.2	0.62
> CCOC(=O)CN1C(=O)S/C(=C\c2ccc(-c3ccc(C(=O)O)c(Cl)c3)o2)C1=O
 : 55	5.6	i	-3.3	11	-8.3	0.65
> O=C(NC(=S)Nc1cccc2cc(O)ccc12)c1ccccc1Br
 : 45	-5.0	i	4.5	-1	-5.2	0.72
> Cn1c(SCC(=O)NCc2ccccc2)nc2c([nH]c3ccccc32)c1=O
 : -13	0.9	nt	2.4	nt	nt	0.69
> C#CCOCCOCCOCCNc1nc(N2CCN(C(=O)[C@H](CCCCN)n3cc([C@@H](N)C(C)CC)nn3)CC2)nc(N2CCN(C(=O)[C@H](Cc3ccc(O)cc3)n3cc([C@@H](N)CC(C)C)nn3)CC2)n1 (stereo partly specified)
 : -21	2.6	i	1.6	2	0.8	nt
> O=C(CCN1C(=O)c2ccccc2S1(=O)=O)N1CCN(c2cccc(Cl)c2)CC1
 : -2	5.5	i	2.1	2	-5.8	0.62
> COCCCN1C(=O)C(=O)/C(=C(/O)c2ccc(S(=O)(=O)N3CCCCC3)cc2)C1c1ccc(OC)cc1 (stereo unspecified)
 : -4	-1.2	i	11	-2	5.5	0.69
> O=C(CNS(=O)(=O)c1ccc(F)cc1)N1CCCC1
 : -4	-0.4	i	2.8	-2	-0.1	0.69
> CSCCC(/C(O)=C(\C#N)c1nc2ccccc2[nH]1)N1C(=O)c2ccccc2C1=O (stereo unspecified)
 : -15	7.7	nt	nt	-1	-2.1	nt
> O=C(Nc1nnc(-c2ccc3c(c2)OCCO3)o1)C1CCCCC1
 : -4	1.8	i	4.0	-3	2.3	0.68
> Cc1[nH]c2ccccc2c1C(=O)CSc1ccccn1
 : -5	11	i	-1.1	-10	0.7	0.65
> CCOC(=O)c1ccccc1-n1nnnc1C
 : 5	-0.2	i	4.3	13	1.9	0.66

More structures
Fields: ALR inh	LANA-H2A inh	FGF22 binding	UCH37 inh	Beta2AR agonist	HNF4A DNA FP	Ecoli growth
> COc1ccc2nc(NC(=O)c3ccc([N+](=O)[O-])o3)sc2c1
 : -16	4.0	i	2.9	-2	0.8	0.48*
> Cc1c(Br)c([N+](=O)[O-])nn1CC(=O)Nc1ccc2nc3n(c(=O)c2c1)CCCC3
 : -5	2.8	i	2.4	-6	0.5	0.7
> Cc1cccc(NC(=O)CSc2nnc(CSc3nc(C)cc(C)n3)n2Cc2ccco2)c1
 : nt	-1.7	nt	1.7	-9	-0.5	0.72
> CCC1CCCCN1C(=O)c1noc(C(C)C)c1[N+](=O)[O-] (stereo unspecified)
 : nt	nt	nt	-1.0	2	2.2	0.69
> COc1cccc(/C=N/Nc2nc(-c3cccnc3)nc3ccccc23)c1
 : 2	1.7	i	nt	9	2.4	nt
> O=C(CSc1ncnc2ccccc12)c1cccs1
 : 99*	-1.4	i	7.2	5	-1.2	0.68
> COc1ccc(C2CC(=O)N(C)c3ccccc3S2)cc1 (stereo unspecified)
 : 59	7.3	i	-0.6	-4	6.2	0.66
> Cc1ccc(C(=O)CCNc2ccc(F)c(Cl)c2)o1
 : -8	-2.4	nt	0.8	7	-1.7	0.7
> Clc1ccc(-c2nn3c(C4COc5ccccc5O4)nnc3s2)cc1 (stereo unspecified)
 : -7	-3.4	nt	3.8	-14	3.2	0.71
> CCCCCOc1ccc2oc(=O)c3c(c2c1)CCCN3C(=O)CN1CCCC(C(=O)OCC)C1 (stereo unspecified)
 : -4	-0.5	nt	-0.9	-25	-2.3	0.69
> CCn1c(/C=C/Nc2ccccc2)[n+](CC)c2cc(Cl)c(Cl)cc21
 : 8	6.0	i	12	nt	-1.4	0.66
> CCC(=O)Nc1ccc(Cl)c(NC(=O)c2ccccc2OC)c1
 : nt	0.2	i	5.0	-20	0.1	0.72
> O=C(CCSCc1ccccc1F)NCCc1ccccc1
 : -11	2.8	i	2.9	-3	3.9	0.7
> CC(=O)Nc1ccc(-c2c(C)cc3oc(=O)cc(-c4ccccc4)c3c2C)cc1
 : nt	nt	i	1.3	4	-0.8	0.74
> COc1ccc(-c2ccc3oc(-c4ccsc4)cc(=O)c3c2)cn1
 : -2	-2.3	i	2.1	-1	0.7	0.7
> Cc1ccccc1OCC(=O)NNC(=O)Cn1[nH]c(=O)c2ccccc2c1=O
 : nt	1.3	i	-1.3	10	-8.1	0.66

Some of the compounds tested, so the mix of outcomes need not match the whole.
